Assay outcomes as filed in PubChem.
PABP FP inh – PABP poly(A) RNA binding inhibitors, primary screen, biochemical, fluorescence polarization, uHTS; AID 2014, 2009; 290,000 tested, 1% active; inhibition, % at 35 µM; Polyadenylate-binding protein 1 (Homo sapiens), P11940;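 active means 50% or more with normal probe brightness, or confirmed in later tests; inconclusive means above 50% with abnormal brightness, or retests that disagree; inactive means below 50% or failed in later tests; about a fifth of its hits are not listed in these tables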;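 further: calls also rest on retests at 20 µM and on dose response follow-up; controls were probe without protein and protein plus probe with vehicle; some compounds called inactive have numbers as strong as hits; many hits fall short of the cut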
eIF4H FP inh – human eIF4H binding inhibitors, primary screen, translation initiation inhibitor project, biochemical, uHTS, fluorescence polarization; AID 2012, 2009; eIF4H fluorescence polarization binding assay; 290,000 tested, 0.94% active; Eukaryotic translation initiation factor 4H (Homo sapiens), Q15056; inhibition, % at 35 µM;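 active means 50% or more with normal probe brightness, or confirmed in later tests; inconclusive means above 50% with abnormal brightness, or retests that disagree; inactive means below 50% or failed in later tests; about a fifth of its hits are not listed in these tables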;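 further: calls also rest on retests at 20 µM and on dose response follow-up; 0% = protein and probe with vehicle and 100% = probe without protein; strong numbers were not always called active; many hits fall short of the cut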
CSC inhib – cancer stem cell viability inhibitors, primary screen, luminescence; inhibition, % at 7.5 µM; 300,000 tested, 1.1% active; cancer stem cell-like cells viability;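 active means mean at 75% or more and at least half the replicates too; inconclusive means mean and replicates disagree; tested in HMLE shEcad cells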;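 further: 0% = median of negative and 100% = median of positive control wells; the first replicate is given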
MT1-MMP act inh – blockers of MT1-MMP proenzyme processing, primary screen, HT1080 RFP-PRO-GFP cells, GFP/RFP fluorescence. GFP/RFP ratio fluorescence, overnight; percent of plate control window, DMSO zero. GFP/RFP ratio change, % at 20 µM. 360,000 tested, 0.061% active. AID 651647, 2012. Matrix metalloproteinase-14 (Homo sapiens), P50281;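 active means GFP/RFP ratio change of at least 30% with cell ATP level not reduced by more than half and red fluorescence within 50% of control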; further: strong numbers were not always called active
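Assay system: HT1080 RFP-PRO-GFP cells. Benchmarks: DMSO vehicle wells and RFP-L50D-GFP reporter cell wells. Times: overnight cell settling, then overnight compound exposure, 37 °C, 5% CO2. Compound: 20 µM single dose, 1% DMSO. Read-out basis: GFP/RFP fluorescence ratio.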
UUG fidelity – modulators of yeast start codon fidelity, primary screen, whole organism, S. cerevisiae, single point, plate reader | activity score, % at 18.7 µM | AID 602363, 2012 | 350,000 tested, 0.13% active | S. cerevisiae UUG-firefly luciferase reporter, luminescence/redox ratio;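 active means replicate mean at a twofold rise or more, about +100% in these data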;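 further: firefly luciferase made from a UUG start codon reports start codon fidelity; reporter light over untreated wells divided by growth signal over untreated wells; some hits fall short of that in this replicate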
Rce1 inh – yeast Rce1p protease inhibitors, primary screen, biochemical, fluorescence, cell-free homogeneous. CAAX prenyl protease 2 (Saccharomyces cerevisiae (strain ATCC 204508 / S288c)), Q03530. yeast membranes, quenched prenylated peptide cleavage fluorescence. calls only. 290,000 tested, 0.27% active;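 active means fall in fluorescence gain of 50% or more versus controls, with final raw signal at or below 3038400; inconclusive means same 50% fall but final raw signal above 3038400; inactive means fall in fluorescence gain under 50%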;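 further: plate controls were neutral control wells for no effect and wells lacking membranes for full effect; tested at 10 µM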
Target sequence (Q03530 whole entry, looked up): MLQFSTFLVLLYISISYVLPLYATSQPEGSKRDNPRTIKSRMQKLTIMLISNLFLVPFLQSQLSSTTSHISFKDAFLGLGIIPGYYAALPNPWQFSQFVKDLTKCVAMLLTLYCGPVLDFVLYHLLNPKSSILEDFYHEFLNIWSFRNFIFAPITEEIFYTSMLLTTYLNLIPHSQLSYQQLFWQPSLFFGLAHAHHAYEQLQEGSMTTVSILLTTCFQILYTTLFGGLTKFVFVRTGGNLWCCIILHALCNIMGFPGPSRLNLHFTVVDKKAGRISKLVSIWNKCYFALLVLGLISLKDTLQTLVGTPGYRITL
Env fusion inh – inhibitors of HIV-1 Env-driven cell-cell fusion, primary screen, HeLa-JRFL effector, CEM21 target cells, luciferase; inhibition, % at 12.3 µM; 360,000 tested, 1.1% active;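 active means mean replicate inhibition score of at least 50 and every replicate individually at or above 50; inconclusive means only one of the two criteria met; inactive means mean below 50 and not all replicates reaching 50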;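 further: 0% = plate neutral controls and 100% = maraviroc near 300 nM; one replicate is shown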
eIF4H FP inh retest – second read-out of eIF4H FP inh, no call of its own (marks repeat the call); inhibition, %; compound at 20 µM; confirmation average;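 mean of two retest wells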
PABP FP inh retest – second read-out of PABP FP inh, no call of its own (marks repeat the call); inhibition, %; compound at 20 µM; confirmation repeats;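 mean of two retest wells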
MT1-MMP act inh RFP – also measured in MT1-MMP act inh; calls as there; RFP signal change, %; measured here: RFP expression control read;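 0 = vehicle wells; hits needed this value within 50% of zero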
* hit, by the source's call; i = inactive; ? = inconclusive; · = no result given; + = active, no number.

SMILES	PABP FP inh	eIF4H FP inh	CSC inhib	MT1-MMP act inh	MT1-MMP act inh RFP	UUG fidelity	Rce1 inh	Env fusion inh	others
CC(=Cc1ccccc1)C=C1SC(=S)N(CCCC(=O)Nc2ccc(C(=O)O)cc2)C1=O	·	·	·	5	-7	-13	·	-4
NC(=NCCc1ccccc1)NS(=O)(=O)c1cccs1	7	0	·	-1	2	·	i	3
Cn1c(=O)c(C(=O)NCCO)c(O)c2ccccc21	16	1	-5	1	1	-11	+	·
CCOc1ccc(NC(=O)C(=O)N/N=C/c2cccnc2)cc1	-3	-8	-10	1	7	-8	i	-13
COc1ccc(NC(=O)c2cc(Br)ccc2Cl)c([N+](=O)[O-])c1	-12	-5	-7	-3	-3	·	i	-3
CCC(=O)NC(c1ccco1)c1cc(Cl)c2cccnc2c1OC (stereo not given)	·	·	-14	1	0	-11	·	-4
CCC(C)c1ccc(O)c(NC(=O)c2cncc(Br)c2)c1 (stereo not given)	2	-7	15	4	-4	·	i	·
O=C(N/N=C/c1ccc(OCc2cnc(Cl)s2)cc1)c1ccncc1	-9	8	-3	-2	-6	·	i	-12
O=C(NCCN1CCOCC1)C1CCC(=O)N1C1CCCCC1 (stereo not given)	-6	4	5	0	1	-15	·	·
CCCNC(=O)CSc1nnc(NC(=O)C2CC(=O)N(c3ccccc3OC)C2)s1 (stereo not given)	·	·	·	0	6	-16	·	8
N#Cc1ccc(-c2ccc(OCC3CNC(=O)O3)cc2)cc1 (stereo not given)	-14	-12	-4	-1	-22	-16	i	-29
COc1ccccc1N1CCN(C(CNC(=O)C2CCCCC2)c2cccnc2)CC1 (stereo not given)	-4	-7	·	0	-8	-17	i	-47
CC#CC[N+](C)(C)CCCCCC	-2	-1	-5	2	8	·	i	-11
COC(=O)c1ccc(CN(C)S(=O)(=O)c2ccc(C)cc2)o1	0	-6	-19	-2	-2	-18	i	-6
COc1ccc(CNC(=O)C2CCN(S(=O)(=O)c3cccc4nsnc34)CC2)cc1	-8	-10	-14	1	0	-13	i	-5
Cc1ccc(OC(C)C(=O)N2CCc3ccccc32)c([N+](=O)[O-])n1 (stereo not given)	·	·	·	-1	-1	-18	·	3
CNc1nc(NCc2ccc(C)cc2C)c2sccc2n1	·	·	·	-2	-16	-3	·	-1
O=C(Nc1ccc(Oc2ccccc2)cc1)c1cnc2n(c1=O)CCS2	-7	-5	5	5	-27	-13	i	33
COc1ccc([C@H]2C[C@@H](O)[C@H](n3cc(COC(=O)c4ccccc4)nn3)CN2C(=O)C2CCCCC2)cc1	·	·	·	1	6	7	·	-27
CCOc1ccc2nc(SCC(=O)Nc3ncccn3)[nH]c2c1	-5	-8	-9	2	-2	-29	i	·
COCCNC(=O)C1CC(c2ccc(C(F)(F)F)cc2)=NO1 (stereo not given)	·	·	-2	1	2	-25	i	-5
CCC(C)c1ccc(NC(=O)C2=CC=CN3CCS(=O)(=O)N=C23)cc1 (stereo not given)	·	·	-10	5	5	-18	·	-12
O=C(NNc1cccc(Cl)n1)Nc1ccc(Cl)cc1	4	-2	12	-1	5	-12	i	11
COc1ccc(C(=O)N2CCN(Cc3cc(OC)c(O)c(OC)c3)CC2)cc1OC	26	-3	8	4	3	-4	i	·
O=C(c1cccc(S(=O)(=O)N2CCCC2)c1)c1cccc(S(=O)(=O)N2CCCC2)c1	-2	-2	21	-8	-19	-8	i	·

Next part
SMILES	PABP FP inh	eIF4H FP inh	CSC inhib	MT1-MMP act inh	MT1-MMP act inh RFP	UUG fidelity	Rce1 inh	Env fusion inh	others
COc1ccc(/C(C)=N/NC(=O)CNC(=O)/C=C\c2ccco2)cc1	-10	67	31	1	6	-14	i	-19	eIF4H FP inh retest=-9;PABP FP inh retest=7
COc1ccc(OC)c(CCNC(=O)c2ccc3c(=O)[nH]c4c(C(=O)NC(C)C)sc(=S)n4c3c2)c1	44	6	-2	-1	-3	-14	i	-24
O=C(NCc1cccnc1)c1ccc(S(=O)(=O)N2CCOCC2)cc1	-3	-10	1	6	2	-35	i	·
Cc1cccc(NC(=O)c2nc[nH]c2C(=O)NCCCCCCNC(=O)c2[nH]cnc2C(=O)Nc2cccc(C)c2)c1	·	·	38	4	-4	3	·	17
CCN1CCN(C(=O)N2CCOCC2)CC1	-2	4	·	1	2	·	i	-3
Cc1ccc(S(=O)(=O)N(C)C)cc1[N+](=O)[O-]	0	3	-4	3	4	·	i	7
CCC(=O)NC(=S)Nc1cc(C(=O)O)ccc1OC	12	-4	-18	-2	4	-3	i	0
CCC(C)NC(=O)CC1Oc2ccc(Cl)cc2NC1=O (stereo not given)	1	2	4	0	-1	-16	i	-4
COc1ccc(-c2cc(C(F)(F)F)n3ncc(C(=O)N4CCc5ccccc5C4)c3n2)cc1	0	-3	8	1	-1	·	i	-6
C/C(=C\c1ccccc1)C(=O)Nc1cc(C)on1	-4	-4	6	2	6	-4	i	-79
NCCCC[C@@H](C(=O)N1CCNCC1)n1cc(CN)nn1	·	·	1	1	0	10	·	-10
CC(C)(C)c1csc(N(CCC#N)CCC#N)n1	-7	2	-3	-3	0	-14	i	-21
Cc1ccc(NC(=O)c2ncn(CCCN(C)CCc3ccccn3)n2)cc1C	·	·	·	3	4	5	·	5
Cc1ccc(OC(=O)c2oc3ccc(F)cc3c2C)c(C)c1	-2	-8	-2	-1	-2	-11	i	10
Nc1n[nH]c(C2CC2)c1N=Nc1ccc(Cl)c(Cl)c1	2	-3	41	1	1	-21	i	-22
COc1cc(N)c(Cl)cc1C(=O)OCC(=O)NCC1CCCO1 (stereo not given)	·	·	-19	0	2	-25	·	·
COc1ccc(CCNC(=O)C2CCN(C(=O)c3cccc(Cl)c3)CC2)cc1OC	-4	-2	-8	0	0	-2	i	4
CC(=O)Nc1ccc(N2CCN(c3ccc(C(F)(F)F)cn3)CC2)nc1	-22	-6	36	7	-10	0	·	11
CCC1CCCCN1CC(=O)Nc1cc(C)nn1-c1nc(C)cc(C)n1 (stereo not given)	9	-18	8	1	-3	·	i	·
COC(=O)[C@@]1(Cc2ccc(OC)cc2)[C@H]2c3cc(C(=O)N4CCCC4)n(Cc4c(CO)[nH]cc(C)c4=O)c3C[C@H]2CN1C(=O)c1ccccc1	·	·	-2	·	·	·	i	-17
O=C(O)c1ccccc1CSc1nc2ccccc2s1	14	11	-10	-3	1	-7	i	-26
O=C(COC(=O)c1n[nH]c2ccccc12)Nc1ccccc1	-7	-3	-7	2	5	·	i	-4
CSCCC(NC(=O)COc1ccccc1)C(=O)Nc1ccc(C)cc1 (stereo not given)	-9	-13	-11	-3	2	-9	i	-19
CCc1ccc(N2CC(C(=O)Nc3ccc4c(c3)OCCO4)CC2=O)cc1 (stereo not given)	3	-8	-12	0	-1	1	i	-6
CCCSC(=S)NC1CCS(=O)(=O)C1 (stereo not given)	-5	0	22	5	-6	-11	i	·

Already shown: entries from further up.
SMILES	PABP FP inh	eIF4H FP inh	CSC inhib	MT1-MMP act inh	MT1-MMP act inh RFP	UUG fidelity	Rce1 inh	Env fusion inh	others
CCc1ccc(N2CC(C(=O)Nc3ccc4c(c3)OCCO4)CC2=O)cc1 (stereo not given)	3	-8	-12	0	-1	1	i	-6
CCCSC(=S)NC1CCS(=O)(=O)C1 (stereo not given)	-5	0	22	5	-6	-11	i	·

Other entries:
SMILES	PABP FP inh	eIF4H FP inh	CSC inhib	MT1-MMP act inh	MT1-MMP act inh RFP	UUG fidelity	Rce1 inh	Env fusion inh	others
CC(CNC(=O)C(C)(C)C)NC(=O)C(C)(C)C (stereo not given)	2	-14	-11	-3	9	-12	i	-4
Cc1ccc(OCc2nnc(SCC(=O)N3CCc4ccccc43)n2C)cc1	·	·	-12	-2	0	-8	i	·
COc1ccc(/C=C(\NC(=O)c2cccs2)C(=O)NC(C)(C)C)cc1OC	-2	-2	2	0	5	8	i	-6
O=C(c1ccc(Cl)cc1)n1cnc2ccccc21	10	2	-13	3	2	10	i	16
COc1ccc2oc(=O)c(/C(C)=N/Nc3nc(-c4cc(C)ccc4C)cs3)cc2c1	1	3	0	-1	4	·	i	-15
CS(=O)(=O)c1sc2nc(-c3cccs3)cc(-c3ccccc3)c2c1N	?	?	99*	-14	-5	·	i	·
O=C(NCCCN1CCCC1=O)[C@H](CSCc1ccccc1)N1Cc2ccccc2C1=O	6	5	-6	10	6	-7	i	-3
CC1CCCN(CCCNC(=O)CN2C(=O)COc3ccc(S(=O)(=O)N4CCOCC4)cc32)C1 (stereo not given)	2	-14	·	0	2	-17	i	-14
O=C(NCc1ccc(Cl)cc1)C1CCC(CNc2c(N3CCCC3)c(=O)c2=O)CC1 (stereo not given)	-10	-1	2	-5	-4	-3	i	8
O=C(CN1CCCCC1)Nc1ccc(C(F)(F)F)cc1Cl	-2	-8	3	0	-1	-28	i	-12
CCN1C(=O)/C(=C\c2ccco2)C(C(=O)OC)=C1C	-1	-2	1	7	-1	-10	i	17
CCCN(CCC)CC(=O)NCC1(c2ccccc2)CCOCC1	1	1	7	-7	-1	-11	i	-31
COc1ccccc1C(=O)NC(CCSC)C(=O)NNC(=O)c1csc(N2CCOCC2)n1 (stereo not given)	6	-4	-4	0	3	-2	i	-247
CC(C)(O)c1[nH]c2ccc(C(F)(F)F)cc2c1C(C)(C)O	13	-4	9	0	1	0	i	20
Cc1ccc(S(=O)(=O)Cn2nnnc2C(C(C)C)N2CCSCC2)cc1 (stereo not given)	2	-6	-4	-3	1	4	i	·
CC(Cc1ccccc1)N/C=C1\CC(=O)NC1=O (stereo not given)	1	-6	5	-4	1	-11	i	·
Cc1ccc(C(=O)N/C(=C/c2ccco2)C(=O)N2CCOCC2)cc1	2	2	-8	-2	4	-10	i	-8
O=C1CCC(=O)N1OCCOc1ccc(Cl)c2ccccc12	-5	-5	-5	0	-3	-12	i	5
Cc1cc(C)c(C)c(S(=O)(=O)N2CCCN(C)CC2)c1C	12	-10	0	-10	-1	-12	i	-7
N#C/C(=C\c1cn(CCOc2ccccc2F)c2ccccc12)C(=O)NCc1cccs1	-11	-10	12	1	-3	·	i	-10
Cc1cc(Br)ccc1OCC(=O)N(Cc1nc(-c2ccccc2)no1)C(C)C	-7	-1	21	-1	-7	9	i	8
COCCNC(=O)C1(C)CCCN(C(=O)c2cccc(C(F)(F)F)c2)C1 (stereo not given)	·	·	·	2	2	-18	·	0
O=c1ccc2ccc(O[C@@H]3O[C@H](CO)[C@@H](O)[C@H](O)[C@H]3O)c(O)c2o1	·	·	0	0	2	-19	·	-10
CCCCCC(=O)NC(=S)Nc1ccc(Br)cc1C	5	-3	·	10	7	·	i	11
CCCOc1ccc(-c2nc(N3CCN(CC)CC3)c3ccccc3n2)cc1	-2	-2	88*	0	0	-21	i	-2
NC(=O)C(c1ccc(Sc2ccccc2)nn1)c1ccc(Cl)cc1Cl (stereo not given)	5	-3	·	8	-2	1	i	·
COc1ccc(Cl)cc1NC(=O)c1cc(-c2ccccc2)on1	13	-8	-9	3	7	-12	i	-4
CC1CCCCC1Nc1ncnc2sccc12 (stereo not given)	-3	4	-12	13	-16	-1	i	18
